# Assay outcomes deposited in PubChem BioAssay by Broad Institute.
# A1 apoptosis 2 – A1 inhibition read as caspase activation | 24,000 tested, under 10 active | MEF A1-2A-BIM cells, caspase-Glo luminescence, 3 h; percent of clofoctol response, DMSO zero | caspase activation, % (concentration not given with the values) | AID 2465; in the data active = caspase activation above about 5.9%;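 note: wells of about 30 µL received 50 nL stock; the first replicate is given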
#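 Test system – A1-2A-BIM-expressing MEF cells · Input – 2500 cells/well · Medium – RPMI-1640 growth medium with 10% FBS · Compound dosing – 50 nL pinned compound · Timing – 3 h compound exposure at 37 °C · Technique – Caspase-Glo luminescence (DEVD substrate) · Evaluation – Caspase-3/7 activity from luminescence increase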
# * = called active by the depositor. A portion of the library (hit frequency here may not be typical).
SMILES,A1 apoptosis 2
C[C@H]1CN([C@@H](C)CO)C(=O)c2cccc(NC(=O)c3ccncc3)c2O[C@@H]1CN(C)S(=O)(=O)c1ccc(F)cc1,2.2
C[C@H]1CCCCO[C@@H](CN(C)C(=O)CCC(F)(F)F)[C@@H](C)CN([C@@H](C)CO)C(=O)c2cc(NS(=O)(=O)c3ccc(F)cc3)ccc2O1,0.4
C[C@@H]1CCCCO[C@H](CN(C)S(=O)(=O)c2ccc(Cl)cc2)[C@H](C)CN([C@H](C)CO)C(=O)c2cc(NS(C)(=O)=O)ccc2O1,-1.6
C[C@@H]1CN([C@H](C)CO)C(=O)c2cccc(NC(=O)NC3CCCCC3)c2O[C@@H]1CN(C)C(=O)NC1CCCCC1,1.0
C[C@H]1CN([C@@H](C)CO)C(=O)c2cccc(NS(=O)(=O)c3ccc(Cl)cc3)c2O[C@H]1CN(C)S(=O)(=O)c1cn(C)cn1,1.0
COc1ccc(CN(C)C[C@@H]2OCCCC[C@H](C)Oc3ccc(NC(=O)Nc4ccccc4)cc3C(=O)N([C@H](C)CO)C[C@H]2C)cc1,0.3
C[C@@H]1CN([C@@H](C)CO)C(=O)c2cccc(NC(=O)c3ccc(-c4nccs4)cc3)c2O[C@H]1CN(C)S(=O)(=O)c1cn(C)cn1,1.2
C#CCN1[C@H](/C=C/C2CC2)[C@H](Cc2ccccc2)OC(=O)[C@@H]1[C@@H]1N[C@@H](C(=O)OC)C(C)(C)S1,-0.6
C[C@@H]1CN([C@@H](C)CO)C(=O)c2cc(N(C)C)ccc2O[C@H]1CN(C)Cc1ccc2c(c1)OCO2,-1.7
C[C@@H]1CN([C@@H](C)CO)C(=O)CCCn2nncc2CO[C@H]1CN(C)S(=O)(=O)c1ccc(Oc2ccccc2)cc1,0.0
C[C@H]1CN([C@@H](C)CO)C(=O)c2cc(NC(=O)NC3CCCCC3)ccc2O[C@@H]1CN(C)C(=O)Nc1cccc2ccccc12,0.4
C[C@H]1CN([C@@H](C)CO)C(=O)c2cccc(NC(=O)c3ccncc3)c2O[C@@H]1CN(C)CC1CC1,0.7
C=CC[C@]12N=C(c3ccc(OCCCO)cc3)O[C@H]1c1ccccc1CN(C(=O)c1ccccc1)C2=O,0.0
C[C@@H]1CCCCO[C@@H](CN(C)C(=O)Nc2cccc3ccccc23)[C@H](C)CN([C@@H](C)CO)C(=O)c2cc(NC(=O)CCC(F)(F)F)ccc2O1,-1.0
C[C@@H]1CCCCO[C@@H](CN(C)Cc2ccc(C(F)(F)F)cc2)[C@H](C)CN([C@H](C)CO)C(=O)c2cc(NS(=O)(=O)c3cccs3)ccc2O1,0.8
O=C(OC(C(=O)NCc1ccccc1)c1cccs1)c1ccccc1 (stereo not drawn),-0.5
C[C@@H]1CCCCO[C@H](CN(C)S(C)(=O)=O)[C@H](C)CN([C@@H](C)CO)C(=O)c2cc(NC(=O)c3ccccc3)ccc2O1,-0.5
C[C@@H]1CCCCO[C@H](CN(C)C(=O)NC2CCCCC2)[C@H](C)CN([C@H](C)CO)C(=O)c2cc(NC(=O)NC3CCCCC3)ccc2O1,-1.1
CNC[C@@H]1Oc2ccc(NC(=O)Cc3cn(C)c4ccccc34)cc2CC(=O)N([C@@H](C)CO)C[C@H]1C,1.8
C[C@@H]1CCCCO[C@H](CN(C)C(=O)Nc2ccccc2)[C@H](C)CN([C@@H](C)CO)C(=O)c2cc(NC(=O)NC3CCCCC3)ccc2O1,0.1

# A draw from above in order of number of heavy atoms, low to high:
SMILES,A1 apoptosis 2
O=C(OC(C(=O)NCc1ccccc1)c1cccs1)c1ccccc1 (stereo not drawn),-0.5
C[C@H]1CN([C@@H](C)CO)C(=O)c2cccc(NC(=O)c3ccncc3)c2O[C@@H]1CN(C)CC1CC1,0.7
C[C@@H]1CN([C@@H](C)CO)C(=O)c2cccc(NC(=O)c3ccc(-c4nccs4)cc3)c2O[C@H]1CN(C)S(=O)(=O)c1cn(C)cn1,1.2

# (listing goes on)
SMILES,A1 apoptosis 2
C[C@H](CO)N1C[C@H](C)[C@H](CN(C)C(=O)NC2CCCCC2)Oc2ncc(C#Cc3ccc(F)cc3)cc2C1=O,2.4
COc1ccc(CN(C)C[C@@H]2Oc3ccc(NC(=O)C4CC4)cc3CC(=O)N([C@@H](C)CO)C[C@@H]2C)cc1,2.2
C[C@H]1CN([C@@H](C)CO)C(=O)Cc2cc(NC(=O)CCC(F)(F)F)ccc2O[C@@H]1CN(C)C(=O)Nc1cccc2ccccc12,1.1
COc1ccc(CN(C)C[C@H]2OCCCC[C@H](C)Oc3ccc(NS(=O)(=O)c4cn(C)cn4)cc3C(=O)N([C@H](C)CO)C[C@@H]2C)cc1,-0.6
C[C@@H]1CN([C@H](C)CO)C(=O)Cc2cc(NS(=O)(=O)c3cn(C)cn3)ccc2O[C@H]1CN(C)C(=O)Nc1ccccc1,0.5
C[C@@H]1CN([C@@H](C)CO)C(=O)c2cc(NC(=O)c3ccncc3)ccc2O[C@H]1CN(C)C,-0.2
C[C@H]1CCCCO[C@@H](CN(C)C(=O)c2ccccc2)[C@@H](C)CN([C@@H](C)CO)C(=O)c2cc(NS(C)(=O)=O)ccc2O1,0.4
C[C@@H]1CN([C@H](C)CO)C(=O)c2cc(N(C)C)ccc2O[C@H]1CN(C)Cc1ccncc1,0.6
CCCN(C)C[C@@H]1Oc2ncc(-c3cc4ccccc4o3)cc2C(=O)N([C@H](C)CO)C[C@@H]1C,1.1
C[C@H]1CN([C@@H](C)CO)C(=O)c2cccc(NC(=O)C3CCCCC3)c2O[C@@H]1CN(C)Cc1ccc(-c2ccccc2)cc1,-1.1
CCCN(C)C[C@@H]1OCCCC[C@@H](C)Oc2ccc(NS(=O)(=O)c3cn(C)cn3)cc2C(=O)N([C@@H](C)CO)C[C@@H]1C,1.4
CCO[C@@H]1OC(C(=O)Nc2ccccc2)=C[C@H](C)[C@H]1CCCO,0.0
C[C@H](CO)N1C[C@H](C)[C@H](CN(C)C)Oc2ncc(-c3ccc(F)cc3)cc2C1=O,0.4
CNC[C@H]1Oc2ccc(NC(=O)NC(C)C)cc2C(=O)N([C@H](C)CO)C[C@@H]1C,-0.5
C[C@H](CO)N1C[C@H](C)[C@@H](CN(C)S(=O)(=O)c2cccs2)Oc2ccc(NC(=O)C3CC3)cc2CC1=O,0.7
C[C@H]1CN([C@@H](C)CO)C(=O)c2cc(NC(=O)Nc3ccc4c(c3)OCO4)ccc2O[C@@H]1CN(C)C(=O)Nc1ccc2c(c1)OCO2,0.6
C[C@H](CO)N1C[C@H](C)[C@@H](CN(C)C(=O)NC2CCCCC2)Oc2ccc(NS(=O)(=O)c3ccc(F)cc3)cc2C1=O,0.0
C[C@@H]1CN([C@@H](C)CO)C(=O)Cc2cc(NC(=O)C3CCCCC3)ccc2O[C@@H]1CN(C)C(=O)NC1CCCCC1,0.0
C[C@@H]1CN([C@@H](C)CO)C(=O)Cc2cc(NS(=O)(=O)c3cn(C)cn3)ccc2O[C@@H]1CN(C)Cc1ccc(C(F)(F)F)cc1,-0.2
O=C(O)CCCCCCC(=O)N/N=C/CCC1CCCCC1,0.1
C[C@H](CO)N1C[C@H](C)[C@@H](CN(C)S(=O)(=O)c2ccccc2)Oc2ccc(NS(=O)(=O)c3cn(C)cn3)cc2CC1=O,-0.8
C[C@H]1CN([C@@H](C)CO)C(=O)CCCn2nncc2CO[C@@H]1CN(C)Cc1ccccc1,1.2
C[C@@H]1CCCCO[C@H](CN(C)C(=O)Nc2ccc(F)cc2)[C@H](C)CN([C@@H](C)CO)C(=O)c2cc(NC(=O)CCC(F)(F)F)ccc2O1,-0.4
Cc1ccc(S(=O)(=O)Nc2ccc3c(c2)C(=O)N([C@@H](C)CO)C[C@H](C)[C@H](CN(C)C(=O)NC(C)C)OCCCC[C@H](C)O3)cc1,0.9
C[C@H]1CN([C@@H](C)CO)C(=O)c2cc(NS(C)(=O)=O)ccc2O[C@@H]1CN(C)S(=O)(=O)c1cccs1,-0.5
CC(C)NC(=O)N(C)C[C@@H]1OCCCC[C@@H](C)Oc2ccc(NC(=O)Nc3ccc(F)cc3)cc2C(=O)N([C@H](C)CO)C[C@@H]1C,0.5
Cc1cc(C(=O)Nc2cccc3c2O[C@@H](CN(C)S(=O)(=O)c2cn(C)cn2)[C@@H](C)CN([C@H](C)CO)C3=O)n(C)n1,-0.4
Cc1noc(C)c1NC(=O)Nc1ccc2c(c1)C(=O)N([C@@H](C)CO)C[C@@H](C)[C@H](CN(C)C(=O)CCCN(C)C)OCCCC[C@@H](C)O2,0.1
C[C@@H]1CN([C@H](C)CO)C(=O)c2cccc(NC(=O)Nc3ccc(F)cc3)c2O[C@@H]1CN(C)C(=O)Nc1ccc2c(c1)OCO2,-1.4
C[C@@H]1CN([C@@H](C)CO)C(=O)c2cc(NC(=O)Nc3cccc4ccccc34)ccc2O[C@@H](C)CCCCO[C@H]1CN(C)C(=O)CCCN(C)C,-1.1
C[C@@H]1CCCCO[C@H](CN(C)Cc2ccc(C(=O)O)cc2)[C@@H](C)CN([C@H](C)CO)C(=O)c2cc(NC(=O)Nc3ccc(C(F)(F)F)cc3)ccc2O1,-1.0
C[C@@H]1CN([C@H](C)CO)C(=O)c2cccc(NC(=O)Nc3ccccc3)c2O[C@@H]1CN(C)Cc1ccc(Oc2ccccc2)cc1,-1.0
C[C@H](CO)N1C[C@H](C)[C@@H](CN(C)Cc2ccc(C(F)(F)F)cc2)OCCCC[C@H](C)Oc2ccc(NC(=O)Nc3ccc4c(c3)OCO4)cc2C1=O,0.2
COc1ccc(CN(C)C[C@@H]2OCc3cnnn3CCCC(=O)N([C@H](C)CO)C[C@H]2C)cc1,0.3
C[C@H]1CCCCO[C@H](CN(C)Cc2ccc(C(=O)O)cc2)[C@@H](C)CN([C@@H](C)CO)C(=O)c2cc(NC(=O)CCC(F)(F)F)ccc2O1,1.1
C[C@@H]1CCCCO[C@@H](CN(C)C(=O)Nc2ccc3c(c2)OCO3)[C@H](C)CN([C@H](C)CO)C(=O)c2cc(NS(C)(=O)=O)ccc2O1,-0.4
C[C@@H]1CCCCO[C@H](CN(C)C(=O)CCC(F)(F)F)[C@H](C)CN([C@H](C)CO)C(=O)c2cc(N(C)C)ccc2O1,0.3
C[C@@H]1CCCCO[C@@H](CN(C)C(=O)Nc2ccccc2)[C@@H](C)CN([C@H](C)CO)C(=O)c2cc(NC(=O)NC3CCCCC3)ccc2O1,0.6
C[C@@H]1CN([C@H](C)CO)C(=O)c2cc(NS(=O)(=O)c3ccc(Cl)cc3)ccc2O[C@H]1CN(C)Cc1ccncc1,-0.2
O=C1CSC2=NC3(CO)Oc4ccccc4[C@H]([C@H]3CO)N12,-0.1
C[C@@H]1CN([C@@H](C)CO)C(=O)c2cccc(NC(=O)C3CC3)c2O[C@H]1CN(C)C(=O)Nc1ccc2c(c1)OCO2,-1.4
C[C@H](CO)N1C[C@H](C)[C@@H](CN(C)Cc2ccc(Cl)c(Cl)c2)Oc2c(NC(=O)Nc3ccc4c(c3)OCO4)cccc2C1=O,-0.8
C[C@@H]1CCCCO[C@H](CN(C)S(=O)(=O)c2cn(C)cn2)[C@@H](C)CN([C@@H](C)CO)C(=O)c2cc(NC(=O)c3ccccc3)ccc2O1,0.0
CCOc1cc(/C=N/NC(=O)c2ccccc2O)ccc1O,-0.8
C[C@H](CO)N1C[C@H](C)[C@H](CN(C)Cc2ccc3c(c2)OCO3)Oc2ccc(NC(=O)CCC(F)(F)F)cc2CC1=O,-0.1
CC(C)NC(=O)N(C)C[C@@H]1OCCCC[C@@H](C)Oc2ccc(NC(=O)CCCN(C)C)cc2C(=O)N([C@H](C)CO)C[C@H]1C,-0.1
COC(=O)CCCCCCC(=O)N/N=C/c1cc(OC)ccc1O,-1.0
C[C@@H]1CN([C@H](C)CO)C(=O)Cc2cc(NS(=O)(=O)c3cccs3)ccc2O[C@H]1CN(C)S(=O)(=O)c1ccccc1,-0.8
C[C@H](CO)N1C[C@H](C)[C@H](CN(C)Cc2ccc(Cl)c(Cl)c2)Oc2ccc(NC(=O)CCN3CCOCC3)cc2C1=O,-0.8
Cc1noc(C)c1NC(=O)Nc1ccc2c(c1)C(=O)N([C@H](C)CO)C[C@H](C)[C@@H](CN(C)C(=O)Nc1c(C)noc1C)OCCCC[C@@H](C)O2,-1.6
Cc1noc(C)c1NC(=O)N(C)C[C@@H]1Oc2c(NS(=O)(=O)c3cn(C)cn3)cccc2C(=O)N([C@@H](C)CO)C[C@@H]1C,0.2
C[C@H]1CN([C@@H](C)CO)C(=O)Cc2cc(NC(=O)Nc3ccc(C(F)(F)F)cc3)ccc2O[C@@H]1CN(C)C(=O)Nc1ccccc1,-1.1
Cc1nnc(Sc2ccc(/C=N/NC(=O)CCCCCCC(=O)NO)o2)n1C,0.9
C[C@@H]1CN([C@@H](C)CO)C(=O)c2cccc(NC(=O)c3ccc(-c4nccs4)cc3)c2O[C@@H]1CN(C)C(=O)Nc1ccc2c(c1)OCO2,-0.6

# Pulled by structure from the entries so far, five records:
SMILES,A1 apoptosis 2
Cc1nnc(Sc2ccc(/C=N/NC(=O)CCCCCCC(=O)NO)o2)n1C,0.9
C[C@@H]1CN([C@H](C)CO)C(=O)Cc2cc(NS(=O)(=O)c3cccs3)ccc2O[C@H]1CN(C)S(=O)(=O)c1ccccc1,-0.8
C[C@@H]1CN([C@@H](C)CO)C(=O)c2cccc(NC(=O)C3CC3)c2O[C@H]1CN(C)C(=O)Nc1ccc2c(c1)OCO2,-1.4
Cc1noc(C)c1NC(=O)Nc1ccc2c(c1)C(=O)N([C@H](C)CO)C[C@H](C)[C@@H](CN(C)C(=O)Nc1c(C)noc1C)OCCCC[C@@H](C)O2,-1.6
Cc1noc(C)c1NC(=O)N(C)C[C@@H]1Oc2c(NS(=O)(=O)c3cn(C)cn3)cccc2C(=O)N([C@@H](C)CO)C[C@@H]1C,0.2
